Screens: PubChem, several laboratories
Vif TR-FRET = inhibitors of Vif binding to APOBEC3G peptide, primary screen, biochemical, TR-FRET, GST-Vif 1-94, biotin-A3G peptide, dose response retest (AID 1117319) | TR-FRET GST-Vif / biotin-A3G peptide binding; higher % means a stronger effect; test concentration not given here; strong numbers were not always called active | one-dose inhibition, %; IC50 in µM for titrated hits | actives 0.57% (n = 260,000);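 active = above the screen mean plus three standard deviations and confirmed in dose response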;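 note: Vif residues 1-94 fused to GST binding biotinylated APOBEC3G peptide 110-148; 0% = full assay without inhibitor and 100% = GST in place of GST-Vif; retest series ran down from 100 µM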
E coli growth = blocks Escherichia coli growth; AID 1053175; OD600, 23 h; stronger effect = lower value; actives 0.21% (n = 330,000); OD600 absorbance (concentration not given with the values);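 active = OD600 absorbance below the run mean of sample wells minus 3.6 SD, in any replicate, cut at about 0.56 in these data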;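 note: stock transfer was 300 nL into about 60 µL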
LANA-H2A inh = blocks KSHV LANA binding to histone H2A/H2B | Q9QR71 | cell-free LANA-H2A/H2B peptide, fluorescence polarization | inhibition, % (no concentration beside the values) | actives 0.6% (n = 320,000) | AID 2629; in the data active = inhibition mostly above about 10%, no sharp cut-off; inactive = mostly below about 6.7%;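 note: stock transfer was 7.5 nL into about 10 µL; 0% = median of vehicle wells and 100% = median of positive control wells; one replicate is shown; the record names a cut of 25% in any replicate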
A1 inh = inhibitors of the anti-apoptotic protein A1, read as caspase activation; caspase activation, % (concentration not given with the values); actives 0.066% (n = 330,000); AID 2462; MEF A1-2A-BIM cells, Caspase-Glo 3/7 luminescence, 3 h; percent of clofoctol response, vehicle zero;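 active = over half of replicate activation scores above 10%, or exactly half above 10 with the replicate mean above 10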;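 note: wells of about 30 µL received 50 nL stock; many hits fall short of the cut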
B2AR ag = agonists of human beta-2 adrenergic receptor inducing internalization | P07550 | Am2.2-beta2AR cells, FAP receptor internalization, flow cytometry; reference of the scale not given here | response, % (no concentration beside the values) | actives 0.43% (n = 340,000) | AID 504454;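 active = response above a set limit, near 3 SD of response in nonfluorescent compounds, cut at about 42% in these data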;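 note: stock transfer was 100 nL into about 11 µL; a reference agonist was the positive control; negative values mostly stem from fluorescent compounds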
UCH37 inh = blocks the human deubiquitinase UCH37 | purified proteasome/UCH37, Ub-AMC cleavage fluorescence | Q9Y5K5 | inhibition, % (test concentration not listed) | actives 0.33% (n = 330,000);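 active = mean of two replicates above 20%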;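 note: 0% = compound-free wells with enzyme and 100% = wells lacking proteasome; stock transfer was 100 nL into about 20 µL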
Target sequence (Q9Y5K5 whole entry, looked up): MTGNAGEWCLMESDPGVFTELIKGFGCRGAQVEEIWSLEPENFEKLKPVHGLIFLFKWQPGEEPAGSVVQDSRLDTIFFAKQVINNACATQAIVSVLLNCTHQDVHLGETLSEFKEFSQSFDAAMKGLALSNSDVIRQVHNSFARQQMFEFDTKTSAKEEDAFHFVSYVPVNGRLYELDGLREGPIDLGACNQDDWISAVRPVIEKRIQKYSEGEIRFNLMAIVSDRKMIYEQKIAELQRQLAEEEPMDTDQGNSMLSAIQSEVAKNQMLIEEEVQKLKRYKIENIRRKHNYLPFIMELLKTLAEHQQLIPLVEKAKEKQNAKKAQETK
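assay system = human UCH37 enzyme supplied as purified proteasome complex | amount = proteasome at 0.15 nM in the dispensed enzyme solution | schedule = 30 min compound-proteasome preincubation then 25 min substrate reaction, room temperature | measured by = fluorescence, ex 355 nm, em 460 nm | benchmarks = no-proteasome wells (full inhibition) and compound-free wells (no inhibition)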
HNF4A DNA FP = change in binding of human HNF4 alpha to DNA | AID 1224865 | actives 0.3% (n = 360,000) | activity change, % at 10 µM | P41235 | HNF4a-FITC DNA binding, fluorescence polarization, 1 h; in the data active = activity change above about 30%, passing the limit was not always enough;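 note: controls were the assay level and a saturating level of protein; the project sought stronger binding though the title names inhibitors; some compounds called inactive have numbers as strong as hits; positive values seem to mean higher polarization but the record does not say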
Target sequence (P41235 whole entry, looked up): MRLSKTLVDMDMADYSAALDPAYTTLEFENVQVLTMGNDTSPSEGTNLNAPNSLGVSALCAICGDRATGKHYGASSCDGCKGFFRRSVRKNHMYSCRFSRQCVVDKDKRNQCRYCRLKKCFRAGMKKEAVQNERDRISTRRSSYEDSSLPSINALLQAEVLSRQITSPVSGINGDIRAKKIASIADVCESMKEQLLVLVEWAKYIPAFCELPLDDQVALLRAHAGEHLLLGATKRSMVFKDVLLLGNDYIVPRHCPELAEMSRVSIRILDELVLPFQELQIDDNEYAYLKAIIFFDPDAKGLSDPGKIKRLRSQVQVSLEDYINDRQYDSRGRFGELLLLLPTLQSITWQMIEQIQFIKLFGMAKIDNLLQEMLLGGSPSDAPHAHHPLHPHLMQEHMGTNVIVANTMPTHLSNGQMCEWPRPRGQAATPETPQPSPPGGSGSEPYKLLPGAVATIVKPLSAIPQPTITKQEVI
* marks the source's active call; other numbers are inactive results; / = not tested or not shown; & = joins results of further samples.

SMILES	Vif TR-FRET	E coli growth	LANA-H2A inh	A1 inh	B2AR ag	UCH37 inh	HNF4A DNA FP
COc1ccc2cc(CN(CCO)C(=O)c3ccc(Br)cc3)c(=O)[nH]c2c1	0%	0.75	/	/	-4	-6.3	0.3
Cc1ccccc1Oc1ccc(NC(=O)C2CC=CCC2C(=O)O)cc1 (stereo not drawn)	-1%	0.67	-3.2	-0.5	-3	0.0	-3.0
Cc1cc(=O)[nH]c2sc(C(=O)N3c4ccccc4CC3C)c(N)c12 (stereo not drawn)	-6%	0.68	5.4	-1.7	6	3.2	0.7
CCN(/C=N/S(=O)(=O)c1ccc(Cl)cc1)CC	-4%	/	-3.6	0.5	0	/	3.1
COc1ccc(N2CCN(C(=O)Cn3nnc(-c4cccs4)n3)CC2)cc1	-4%	0.69	-0.8	-0.4	4	5.4	-0.6
COc1ccc(Br)c(C(=O)N(C)CC(=O)Nc2ccc(N3CCOCC3)cc2)c1	-9%	0.71	/	-0.6	-2	4.4	-1.3
O=C(C1CCCN(C2CC(=O)N(c3ccc(F)cc3)C2=O)C1)N1CCCC1 (stereo not drawn)	-7%	0.72	-7.1	-0.7	12	-1.5	1.1
Cc1ccc(NCC(=O)N=Nc2c(O)[nH]c3ccc([N+](=O)[O-])cc23)cc1	/	0.67	-0.1	-2.5	/	4.9	/
CC(=O)Nc1cc2c(cc1[N+](=O)[O-])OCCO2	/	0.65	1.9	0.8	-3	-0.4	-0.3
CCC(CO)[n+]1c(C)cc(/C=C2\Sc3ccccc3N2Cc2ccccc2)cc1C (stereo not drawn)	-5%	0.61	-250	0.0	-389	18	13
CC1(C)N(OCc2ccccc2)C(=O)C(=O)N(OCc2ccccc2)C1(C)C	7%	0.67	-0.3	-0.1	-5	2.5	5.4
CCN1CCN(CCCNC(=O)C2CCN(c3nnc(-n4c(C)ccc4C)s3)CC2)CC1	-2%	0.73	-3.2	-0.2	2	5.6	-0.6
Cc1cc(N2CCN(C)CC2)nc2ccc(NC(=S)NC3CC3)cc12	30%	0.69	-0.5	0.4	-8	0.7	4.6
CN(CCOc1ccccc1)S(=O)(=O)c1ccccc1C#N	-12%	0.69	-2.5	-0.4	-3	2.2	0.0
COc1ccc(OC)c(Nc2cc(C)nc3ccccc23)c1	-2%	0.71	-0.9	-0.7	-12	9.3	0.1
CCCn1c(=O)c(C(=O)Nc2cccc(C)n2)c(O)c2ccccc21	/	0.73	1.3	1.0	2	-20	2.4
CS(=O)(=O)c1ccc2nc(NC(NC(=O)c3ccco3)(C(F)(F)F)C(F)(F)F)sc2c1	7%&14%	0.7	-3.4	-0.6	-10	0.7	1.6
Cc1cc(=O)oc(C)c1C(=O)Nc1c(C)n(C)n(-c2ccccc2)c1=O	2%	0.7	4.6	0.5	0	1.4	10
CCCC(=O)Oc1ccc(N(C(=O)CCC)S(=O)(=O)c2cccs2)cc1	4%	/	-0.2	-0.7	-8	/	5.0
Cc1ccc(S(=O)(=O)N2CCN(C(=O)CSc3cc(C)ccc3C)CC2)c(C)c1	7%	0.7	0.6	1.0	-10	1.9	3.0
CC(=O)NC(C)c1nc2ccccc2n1CC(=O)N1C(C)CCCC1C (stereo not drawn)	15%	0.74	0.6	0.2	1	0.7	-0.4
COc1ccc(/C=N/NC(=O)c2ccc(CSc3nncn3C)cc2)cc1OC	5%	/	1.2	0.6	-3	/	5.4
COc1ccccc1C(=O)NC(=O)COC(=O)c1nc(Cl)ccc1Cl	-7%	0.68	-0.5	1.5	-13	0.8	-2.8
Cc1cc(C)n(S(=O)(=O)c2ccc(C)c(C)c2C)n1	-1%	0.67	-2.8	3.8	-9	1.3	-0.7
COc1ccc(NC(c2ccccc2)c2ccncc2)cc1 (stereo not drawn)	7%	0.66	3.1	-0.7	-4	-0.3	0.3
SMILES	Vif TR-FRET	E coli growth	LANA-H2A inh	A1 inh	B2AR ag	UCH37 inh	HNF4A DNA FP
COc1nc(NS(=O)(=O)c2ccc(C)cc2)nc(C)c1Cl	0%	0.72	3.2	1.1	-7	2.5	-0.5
CCc1ccc(/C=N/NC(=O)c2cc(C3CC3)nc3ccc(Br)cc23)s1	0%	/	2.6	-1.1	29	/	2.7
CCOC(=O)c1c(C)[nH]c(C(=O)COC(=O)c2ccc(O)cc2O)c1C	/	0.68	-2.2	-0.3	0	-0.3	2.2
Cc1onc(C(=O)NC2CCCCC2)c1[N+](=O)[O-]	/	0.73	-0.4	-0.1	-1	-2.0	-3.9
CCOc1cc(CNc2ccc3c(c2)OCCO3)cc(Br)c1OCC	6%	0.73	0.1	1.4	17	-2.0	-3.9
CC1CCN(S(=O)(=O)c2cn(CC(=O)Nc3ccc(OC(F)(F)F)cc3)cn2)CC1	-19%	0.66	-6.3	0.5	7	0.0	-0.6
CCCCCCCC(=O)N/N=C(\C)c1ccc(N)cc1	17%	/	-1.7	-0.2	/	/	/
CCOC(=O)N1CCN(S(=O)(=O)c2ccc(F)cc2)CC1	-6%	0.67	-3.1	1.1	0	0.4	-0.2
COC(=O)c1ccc(/C=C2/SC(=S)N(CCCC(=O)Nc3ccc(O)cc3)C2=O)cc1	/	0.69	-0.3	-0.8	9	0.7	0.8
COc1ccccc1/C=C/C=C1\Oc2c(ccc(O)c2CN(C)C)C1=O	11%	0.71	-27	0.5	15	15	58
O=C(COC(=O)/C=C/c1cccc([N+](=O)[O-])c1)NCC1CCCO1 (stereo not drawn)	4%	0.68	2.6	1.7	-3	4.4	-1.6
COc1cc2[nH]c(=S)n(C3CC3)c(=O)c2cc1OC	-13%	0.66	1.3	0.0	12	5.4	3.5
CCOc1cc(C(=O)Nc2ccc(N3CCN(S(C)(=O)=O)CC3)cc2)cc(OCC)c1OCC	9%	0.7	0.9	-1.6	-8	-0.5	1.3
CC(C)(CN1CCCC1)NS(=O)(=O)c1ccccc1	-2%	0.67	0.9	-0.3	4	3.1	-2.5
COc1ccc(S(=O)(=O)Nc2ccc(N3CCOCC3)cc2)cc1Br	10%	0.72	-6.1	0.4	6	3.0	2.0
CCCCOc1ccc(-n2nc(C)cc2C)nn1	0%	0.74	-4.6	-2.0	-2	-0.1	0.4
Cc1cc(=O)[nH]c(SCc2csc(-c3ccccc3)n2)n1	-11%	0.67	1.2	1.9	5	-1.0	-0.5
O=C(NCCCn1ccnc1)Nc1ccc2c(c1)OCO2	0%	0.73	-3.2	-1.3	0	3.0	0.9
CN1CCN(S(=O)(=O)c2ccc(Nc3ccc(F)cc3)c([N+](=O)[O-])c2)CC1	4%	0.59	-0.5	0.9	-11	2.5	-1.7
CCCNC(=O)c1ccccc1NC(=O)Cc1ccc(OC)c(S(=O)(=O)N2CCOCC2)c1	-6%	0.67	4.2	0.5	-5	4.6	1.6
O=C(NC1CCSC1=O)c1cccc(Cl)c1 (stereo not drawn)	-7%	0.64	-0.3	-0.7	8	-0.8	3.1
CC(C)CC(COCc1ccc(C(F)(F)F)cc1)N1CCN(C(=O)c2ccc(C(F)(F)F)cc2)CCC1=O (stereo not drawn)	3%	0.62	0.0	0.5	-5	1.4	-8.1
O=C(CC1C(=O)NCCN1Cc1cccc(Oc2ccccc2)c1)NCCc1cnccn1 (stereo not drawn)	13%	0.68	0.2	1.4	-9	0.3	0.0
O=C(Cn1nc(-c2cccc(Cl)c2)ccc1=O)NCC1COCCO1 (stereo not drawn)	2%	0.69	/	2.5	-2	-2.6	0.3
C/C(=N/Oc1nc(C)cc(C)n1)c1ccc(Br)cc1	20%	/	4.2	-0.9	-10	/	0.6

Laid out differently: 5 of the compounds above.
Each structure is followed by: Vif TR-FRET | E coli growth | LANA-H2A inh | A1 inh | B2AR ag | UCH37 inh | HNF4A DNA FP
- O=C(NCCCn1ccnc1)Nc1ccc2c(c1)OCO2
    0% | 0.73 | -3.2 | -1.3 | 0 | 3.0 | 0.9
- CN1CCN(S(=O)(=O)c2ccc(Nc3ccc(F)cc3)c([N+](=O)[O-])c2)CC1
    4% | 0.59 | -0.5 | 0.9 | -11 | 2.5 | -1.7
- CCCNC(=O)c1ccccc1NC(=O)Cc1ccc(OC)c(S(=O)(=O)N2CCOCC2)c1
    -6% | 0.67 | 4.2 | 0.5 | -5 | 4.6 | 1.6
- O=C(NC1CCSC1=O)c1cccc(Cl)c1 (stereo not drawn)
    -7% | 0.64 | -0.3 | -0.7 | 8 | -0.8 | 3.1
- CC(C)CC(COCc1ccc(C(F)(F)F)cc1)N1CCN(C(=O)c2ccc(C(F)(F)F)cc2)CCC1=O (stereo not drawn)
    3% | 0.62 | 0.0 | 0.5 | -5 | 1.4 | -8.1

The list goes on:
SMILES	Vif TR-FRET	E coli growth	LANA-H2A inh	A1 inh	B2AR ag	UCH37 inh	HNF4A DNA FP
O=C(NNC(=O)c1cc(-c2ccncc2)nc2ccccc12)c1cccc(Cl)c1	-5%	0.66	3.1	-0.1	9	3.4	4.6
COc1ccc2c(c1OC)C(=O)N(c1cccc(C(F)(F)F)c1)C2	-4%	0.63	-6.2	-0.2	3	2.0	-0.2
COc1ccccc1CCNC(=O)C1CCC(=O)N(Cc2ccccc2OC)C1 (stereo not drawn)	/	0.69	-3.0	0.3	6	0.0	3.7
Cc1cc2c3c(c1C)C1(C(=O)N3C(C)(C)CC2C)C(C#N)=C(N)Oc2cc(O)ccc21 (stereo not drawn)	1%	0.67	-5.4	-0.3	2	1.5	0.7
C#CCNC(=O)C1=C[C@H](C)[C@@H](CCCO)[C@H](OCC)O1	-3%	0.81	0.8	0.7	4	-3.0	2.2
CC(=O)C1C(c2ccc(OC(F)F)cc2)NC(=O)NC1(O)C(F)(F)F (stereo not drawn)	0%	0.71	-6.4	0.1	9	6.6	-0.8
Cc1sc2ncnc(-n3cnc4ccccc43)c2c1C	8%	0.66	83*	-0.6	-7	-22	2.1
Cc1nn(Cc2ccccc2)c(C)c1CNC(=O)c1ccc(F)c(S(=O)(=O)N2CCOCC2)c1	2%	0.68	2.1	-0.7	8	4.1	-4.1
CCCCOc1ccc(-c2nnc(-c3cc[n+](C)cc3)o2)cc1	/	0.67	0.2	0.1	-7	12	-5.7
COc1ccc(/C(C)=N/NC(=O)OC(C)(C)C)cc1[N+](=O)[O-]	-8%	/	3.6	-0.1	0	/	-1.7
Cc1ccc(Cl)cc1NC(=O)c1cc(S(=O)(=O)N2CCOCC2)cn1C	/	0.69	3.1	-0.3	5	1.7	4.5
C/C(=N\NC(=O)CC(C)C)c1ccc(N2CCCCC2)cc1	/	/	-1.7	-0.1	-5	/	-2.5
CC(C)=CC1C=C(C)C(C)C2C(=O)NNC(=O)C12 (stereo not drawn)	1%	0.71	-3.1	-0.5	-2	5.3	-4.1
COc1ccccc1Nc1nc2c(C)cccc2cc1C#N	-4%	0.68	4.1	1.4	8	-15	3.9
Cc1noc(C)c1CC(=O)N1CCCC(C(=O)c2ccc(C(C)(C)C)cc2)C1 (stereo not drawn)	/	0.71	-0.8	1.4	-2	3.7	0.2
CC(C)(C)NC(=O)C(=O)NNC(=O)c1ccccc1	5%	0.72	-2.9	0.0	-3	3.5	-0.7
CC(C)C(C)N(Cc1cccc(C(=O)O)c1)C(=O)c1ccc2ccccc2n1 (stereo not drawn)	/	0.67	-3.0	-0.2	1	0.8	-2.3
COc1ccc(C(=O)N(C)C2CCCN(Cc3ccccc3F)C2)cc1C (stereo not drawn)	/	0.71	0.1	-1.2	-1	4.6	-1.7
Cc1cccc(C)c1NC(=O)C1(N(Cc2ccco2)C(=O)CC2NC(=O)NC2=O)CCCC1 (stereo not drawn)	4%	0.72	1.7	0.0	-5	-0.8	2.4
O=C(CNc1ccc(Oc2ccccc2)cc1)N1CCOCC1	6%	0.7	-10	-0.9	-12	5.6	0.3
Cc1ccc(NC(=O)c2cccc(S(=O)(=O)N3CCCCC3)c2)cc1	/	0.65	-2.8	-0.6	-7	1.5	1.4
COc1ccc(CCCNC(=O)C2CCC(=O)N(Cc3ccc(Cl)cc3)C2)cc1 (stereo not drawn)	/	0.64	/	/	-7	1.4	3.9
